# Env fusion inh: HIV envelope-mediated fusion inhibition. HeLa-JRFL Env/CEM21 cell fusion, luciferase. AID 651610. 360,000 tested, 1.1% active. inhibition, % at 12.3 µM;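 active = mean replicate inhibition score of at least 50 and every replicate individually at or above 50; inconclusive = only one of the two criteria met; inactive = mean below 50 and not all replicates reaching 50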;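 also: 0% = plate neutral controls and 100% = maraviroc near 300 nM; one replicate is shown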
# Yeast UUG start: yeast start codon fidelity modulation; S. cerevisiae UUG-firefly luciferase reporter, luminescence/redox ratio; activity score, % at 18.7 µM; 350,000 tested, 0.13% active;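 active = replicate mean at a twofold rise or more, about +100% in these data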;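 also: firefly luciferase made from a UUG start codon reports start codon fidelity; reporter light over untreated wells divided by growth signal over untreated wells; some hits fall short of that in this replicate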
# MT1-MMP act inh: blocks activation of human MT1-MMP; P50281; HT1080 RFP-PRO-GFP cells, GFP/RFP ratio fluorescence, overnight; percent of plate control window, DMSO zero; GFP/RFP ratio change, % at 20 µM; 360,000 tested, 0.061% active; AID 651647;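 active = GFP/RFP ratio change of at least 30% with cell ATP level not reduced by more than half and red fluorescence within 50% of control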; also: strong numbers were not always called active
#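 Read-out: GFP/RFP fluorescence ratio; Test system: RFP-PRO-GFP reporter HT1080 cells; Compound dosing: single-point 20 µM compound, 1% DMSO; Times: overnight compound exposure at 37 °C.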
# MT1-MMP act inh RFP: second read-out of MT1-MMP act inh, no call of its own (marks repeat the call); RFP signal change, %; measured here: RFP expression control read;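 0 = vehicle wells; hits needed this value within 50% of zero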
# The depositor's hits bear a star; ? = inconclusive; · = no result given; & = joins results of further samples. This is a subset, so the mix of outcomes need not match the whole.
# The line under a structure holds: Env fusion inh | Yeast UUG start | MT1-MMP act inh | MT1-MMP act inh RFP
Cc1ccc(S(=O)(=O)N(CCC(=O)NCC(c2ccccc2)N(C)C)c2ccccc2)cc1 (stereo not given)
    · | -10 | 0 | 4
CCN(CC)CCn1c(SCC(=O)Nc2ccc3c(c2)CCC3)nc2ccccc2c1=O
    · | -2 | 0 | 2
COc1ccc(NC(=O)C2CCCCN2S(=O)(=O)c2ccccc2)cc1S(=O)(=O)N1CCOCC1 (stereo not given)
    · | -8 | -2 | 0
CCOC(=O)C1=CCN(S(=O)(=O)c2ccc(C)cc2)C1c1ccc(CC)cc1 (stereo not given)
    · | -13 | 1 | -6
CC(C)CNC(=O)c1ccccc1C(=O)NC1(C(=O)NCC(C)C)CCCC1
    · | -12 | 2 | 1
CC(C)c1ccc(C2(C)NC(=O)N(CC(=O)NC3CCCC(C)C3C)C2=O)cc1 (stereo not given)
    · | -16 | 1 | -6
O=S(=O)(c1ccc(Br)cc1F)N1CCCCC1CCO (stereo not given)
    · | -21 | 2 | 2
COCCOC(=O)C1=C(C)NC(=S)NC1c1ccc(OCC(=O)N2CC(C)OC(C)C2)c(OC)c1 (stereo not given)
    · | -4 | -5 | 1
CCOC(=O)N(C)C[C@H]1OCc2cn(nn2)CCCC(=O)N([C@H](C)CO)C[C@@H]1C
    · | -2&-5 | -2 | 4
C[C@H](CO)N1C[C@H](C)[C@H](CN(C)Cc2cccc(O)c2)OCc2ccccc2-c2c(n(C)c3ccccc23)C1=O
    · | 2 | -7 | -3
CC(C)NC1(C(N)=O)CCN(Cc2ccccc2)CC1
    · | -23 | 3 | 4
O=C(CN1CCN(c2cccc(C(F)(F)F)c2)CC1)N(C1CC1)C1CCS(=O)(=O)C1 (stereo not given)
    · | -15 | 8 | 1
COc1cc2ccccc2cc1C(=O)N1CCCC(C(F)(F)F)C1 (stereo not given)
    · | 1 | -2 | 3
Cc1c(CC(=O)NCC(=O)NCC(=O)N[C@@H](Cc2ccccc2)C(=O)O)c(=O)oc2c(C)c(O)ccc12
    · | -12 | 1 | 3
COc1cc(-c2cc(=O)c3c(O)cc(O)cc3o2)cc(OC)c1OC
    · | 18 | 5 | -15
CCCn1c(SCC(=O)N(CC)c2c(N)n(Cc3ccccc3)c(=O)[nH]c2=O)nnc1-c1ccncc1
    · | -11 | 0 | -9
O=C(Nc1cc(S(=O)(=O)N2CCOCC2)ccc1Cl)c1ccc(=O)[nH]c1
    · | -9 | 0 | 6
Cc1noc(C)c1COc1ccc(C(=O)Nc2nnc(CC(C)C)s2)cc1
    · | -11 | -8 | -31
C=CCn1c(SCC(=O)N(CC)C2CCS(=O)(=O)C2)nnc1-c1ccccc1 (stereo not given)
    · | 4 | -4 | 2
CCCCNC(=O)c1[nH]c(=O)cnc1-c1ccccc1
    · | 1 | 1 | 6

# Six entries from above, with values ahead of the structure.
Env fusion inh | Yeast UUG start | MT1-MMP act inh | MT1-MMP act inh RFP | SMILES
· | -2&-5 | -2 | 4 | CCOC(=O)N(C)C[C@H]1OCc2cn(nn2)CCCC(=O)N([C@H](C)CO)C[C@@H]1C
· | 2 | -7 | -3 | C[C@H](CO)N1C[C@H](C)[C@H](CN(C)Cc2cccc(O)c2)OCc2ccccc2-c2c(n(C)c3ccccc23)C1=O
· | -23 | 3 | 4 | CC(C)NC1(C(N)=O)CCN(Cc2ccccc2)CC1
· | -15 | 8 | 1 | O=C(CN1CCN(c2cccc(C(F)(F)F)c2)CC1)N(C1CC1)C1CCS(=O)(=O)C1 (stereo not given)
· | 1 | -2 | 3 | COc1cc2ccccc2cc1C(=O)N1CCCC(C(F)(F)F)C1 (stereo not given)
· | -12 | 1 | 3 | Cc1c(CC(=O)NCC(=O)NCC(=O)N[C@@H](Cc2ccccc2)C(=O)O)c(=O)oc2c(C)c(O)ccc12

# Further records
# The line under a structure holds: Env fusion inh | Yeast UUG start | MT1-MMP act inh | MT1-MMP act inh RFP
COC(=O)C1(C(=O)OC)C[C@H](/C=C/c2ccccc2)N(Cc2ccccc2OC)[C@@H]1c1ccc(F)cc1
    27 | · | -2 | -5
CC(=O)c1ccc(C2CC(OCCF)=CC(=O)O2)cc1 (stereo not given)
    6 | · | 0 | 3
COc1cccc(CNC(=O)[C@@H]2CCCN2C(=O)[C@H]2CCCCN2S(=O)(=O)c2ccc(OC)c(C)c2)c1
    6 | · | 2 | 2
c1ccc2oc(-c3ccc(Nc4nc(N5CCOCC5)nc(N5CCOCC5)n4)cc3)nc2c1
    -2 | · | -10 | -8
CNC(=O)C[C@@H]1C(=O)N(Cc2ccccc2)CC1(C)C
    -11 | · | 1 | 4
CCOC(=O)[C@]12CCC=C1N(Cc1ccc3c(c1)OCO3)C(=O)[C@H](CC(=O)NCC13CC4CC(CC(C4)C1)C3)C2
    77* | · | -3 | -14
CC1(C(=O)NCc2ccccc2)CN(S(C)(=O)=O)CC(=O)N1CCc1ccccc1 (stereo not given)
    6 | · | 1 | 5
CCOC(=O)[C@]12CCCC=C1N(Cc1cccc3ccccc13)C(=O)[C@H](CC(=O)NCc1ccccc1)C2
    -96 | · | -5 | -15
CC(C)C[C@@H]1COc2cccc(N(C)CCO)c2S(=O)(=O)N1
    -5 | · | 5 | 6
CCOC(=O)[C@]12CCC=C1N(Cc1ccco1)C(=O)[C@H](CC(=O)NCCc1ccccc1OC)C2
    -8 | · | -1 | 2
CCn1nc(C(=O)NCC2COc3ccccc3O2)c2ccccc2c1=O (stereo not given)
    3 | · | -1 | 3
N#CC1=CC2CN(Cc3ccccc3)C1C1C(=O)N(c3ccccc3)C(=O)C21 (stereo not given)
    -49 | · | -5 | 1
CC1Cc2[nH]c(=S)[nH]c(=O)c2C(C)O1 (stereo not given)
    -2 | · | 4 | 0
CC(C)Cc1ccc(C(C)/C=C2/CCC(CN3CCCCC3)C2=O)cc1 (stereo not given)
    -8 | · | 4 | 2
O=C1NC[C@H](CCCCN2C[C@H](Cc3ccc(O)cc3)N(CC3CCCCC3)C(=O)C2=O)N(CCc2ccc(O)cc2)C1=O
    -27 | · | 2 | 3
CC(C)(C)NC(=O)C(c1ccnc2ccccc12)n1c(=O)c(-c2cc3ccccc3[nH]2)nc2ccccc21 (stereo not given)
    -5 | · | -16 | -24
CCOC(=O)C1(Cc2ccccc2)CCCCCC1=O (stereo not given)
    -9 | · | -4 | 1
Cc1ccc2ccc(C(Nc3ccccc3)c3ccc(Cl)cc3)c(O)c2n1 (stereo not given)
    24 | · | -4 | -24
Cc1ccc(C2NC(=O)c3ccccc3N2)c(C)c1 (stereo not given)
    -47 | · | -1 | -13
Oc1ccccc1C=NN=CC=Cc1ccccc1
    -82 | · | 4 | -1

# Next part
# The line under a structure holds: Env fusion inh | Yeast UUG start | MT1-MMP act inh | MT1-MMP act inh RFP
CCN1C(=O)[C@H]2[C@@H](c3ccc(C)cc3)N[C@]3(CCCN(Cc4ccc(Cl)cc4)C3=O)[C@H]2C1=O
    -44 | · | 4 | 0
CCOc1ccc(NC(=O)CN(C)C(=O)c2cc(C3CC3)nn2-c2ccccc2)cc1OCC
    -24 | · | -2 | -1
CCOC(=O)[C@]12CCCC=C1N(CCC1=CCCCC1)C(=O)[C@H](CC(=O)N1CCC(c3ccccc3)CC1)C2
    27 | · | -14 | -14
CC1(C(=O)NS(=O)(=O)Cc2ccccc2)CCN1C(=O)C1(c2ccc(Cl)cc2)CC1 (stereo not given)
    -26 | · | -2 | 3
O=C(Sc1n[nH]c(=O)[nH]c1=O)c1ccccc1
    10 | · | 0 | 3
O=C1NC[C@@H](CCCCN2CCN(CCc3ccccc3)C(=O)C2=O)N(CCC2CCCCC2)C1=O
    -14 | · | 7 | 4
CC(=O)Nc1ccc(C(=O)N2c3ccccc3N=C(c3ccc4c(c3)OCO4)C2C(=O)NCc2ccccc2)cc1 (stereo not given)
    ? | · | -2 | -5
O=C(NC(=S)N1CCN(c2ccc(F)cc2)CC1)c1ccccc1
    2 | · | 4 | 3
COc1cccc(NC(=O)CN(C)C(=O)c2ccc(S(=O)(=O)Nc3ccccc3F)cc2)c1
    -60 | · | 3 | 1
CC(C(=O)NCc1ccccc1)n1c(-c2ccc3c(c2)CCO3)nc2ccccc21 (stereo not given)
    1 | · | 0 | -4
O=c1[nH]cnc(CN2CCCCC2)c1O
    -5 | · | 4 | -1
COc1ccc(CN2C(=O)CSCC2(C)C(=O)Nc2c(C)cccc2C)cc1OC (stereo not given)
    -3 | · | 0 | 2
CC1(c2nnnn2Cc2ccccc2)CCC(=O)N1CCc1ccccc1F (stereo not given)
    0 | · | -189 | -80
CCOC(=O)C[C@@H]1OC[C@H](C(C)C)N1S(=O)(=O)c1ccc(C)cc1
    -24 | · | 3 | -1
Cc1ccsc1C(=O)NNC(=O)c1ccccc1F
    -22 | · | -8 | 2
COC(=O)C1=CN(c2ccc(OC)cc2OC)C(N)=C(C#N)C1c1ccccc1F (stereo not given)
    -172 | · | -2 | -5
COc1cc(Cc2nc3ccccc3n2C(C)c2nc3ccccc3[nH]2)cc(OC)c1 (stereo not given)
    -58 | · | -4 | 1
CCCCN1C(=O)C(CC(=O)NCCc2ccccn2)CC(C(=O)N2CCOCC2)=C1C (stereo not given)
    -27 | · | 0 | 5
COC(=O)c1ccc2nc(-c3cccc(Cl)c3)c(CC3CCCCC3)n2c1
    9 | · | -3 | -8
C=CCC[C@H](CCCCC)OC(=O)/C=C/[C@@H](O)[C@H](O)C[C@@H](O)CC=C
    -5 | · | 11 | -7

# Structures above with a CF3 group (2):
# The line under a structure holds: Env fusion inh | Yeast UUG start | MT1-MMP act inh | MT1-MMP act inh RFP
O=C(CN1CCN(c2cccc(C(F)(F)F)c2)CC1)N(C1CC1)C1CCS(=O)(=O)C1 (stereo not given)
    · | -15 | 8 | 1
COc1cc2ccccc2cc1C(=O)N1CCCC(C(F)(F)F)C1 (stereo not given)
    · | 1 | -2 | 3

# Further entries follow.
# The line under a structure holds: Env fusion inh | Yeast UUG start | MT1-MMP act inh | MT1-MMP act inh RFP
COc1ccc(CN2C(=O)CCCC2(C)c2nc3ccccc3[nH]2)cc1 (stereo not given)
    -10 | · | 2 | 2
Nc1ccn(C2OC(COC(=O)C34CC5CC(CC(C5)C3)C4)C(O)C2O)c(=O)n1 (stereo not given)
    68* | · | -7 | -1
CCCCCNC(=O)C(c1ccncc1)n1c(=O)c(-c2ccccc2)nc2ccccc21 (stereo not given)
    13 | · | -9 | -7
COc1ccc(-c2ccc3c(c2)c(Sc2ccccc2)c(-c2cc(OC)cc(OC)c2)n3C)cc1
    -21 | · | 4 | 5
COc1cc2c(cc1OC)C(Cc1ccccc1[N+](=O)[O-])=NCC2
    0 | · | -1 | 1
NC(=S)NN=C1CCCC(C(F)(F)F)C1 (stereo not given)
    -22 | · | 1 | 2
COc1cc(N)c2ncccc2c1SC
    -20 | · | 1 | 8
CC(C)(O)CN(C(=O)c1ccc([N+](=O)[O-])cc1)C1CCCC1
    -30 | · | -8 | 0
CN1C(c2ccc(F)cc2)=CS/C1=C(/C#N)c1nnc2n1-c1ccccc1SC2
    -2 | · | 6 | -3
CCCCCNC(=O)C(C1CC1)n1c(=O)c(-c2ccco2)nc2ccccc21 (stereo not given)
    -11 | · | -10 | 9
CC(c1nc2ccccc2[nH]1)n1c(-c2ccncc2)nc2ccccc21 (stereo not given)
    5 | · | 2 | 6
Cc1ccc(Cn2cc(CN3CC(N4CCN(C5CCN(C)CC5)CC4)CS3(=O)=O)nn2)cc1 (stereo not given)
    3 | · | 5 | 3
Nc1nnc(SCC(=O)NNC(=O)c2ccccc2)s1
    -6 | · | -3 | 0

# Bioassay records from PubChem BioAssay.
